Vif A3G: HIV-1 Vif–A3G interaction blockers – biochemical, TR-FRET, GST-Vif 1-94, biotin-A3G peptide, dose response retest, primary screen (AID 1117319); TR-FRET GST-Vif / biotin-A3G peptide binding; higher % means a stronger effect; test concentration not given here; strong numbers were not always called active; inhibition, %, or IC50 in µM where a hit was titrated; 260,000 tested, 0.57% active;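 active = above the screen mean plus three standard deviations and confirmed in dose response; inconclusive = results disagree or hit not tested in dose response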;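 also: Vif residues 1-94 fused to GST binding biotinylated APOBEC3G peptide 110-148; 0% = full assay without inhibitor and 100% = GST in place of GST-Vif; retest series ran down from 100 µM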
FGF22 binding: binders of recombinant human FGF22 by thermal shift. calls only at 9.99 µM. AID 651658. 340,000 tested, 1.5% active. SYPRO orange fluorescence; percent of sucrose octasulfate shift, DMSO zero;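 active = melting point raised past a set limit in the mean and every replicate; inconclusive = no clear call; three in four hits are not shown here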
Target sequence (Q9HCT0 whole entry, looked up): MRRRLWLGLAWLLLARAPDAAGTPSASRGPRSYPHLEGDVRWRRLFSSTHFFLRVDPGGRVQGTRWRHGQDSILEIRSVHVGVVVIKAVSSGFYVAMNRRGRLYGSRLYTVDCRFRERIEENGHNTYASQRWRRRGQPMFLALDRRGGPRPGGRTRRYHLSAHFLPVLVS
HNF4A DNA FP: change in binding of human HNF4 alpha to DNA; P41235; activity change, % at 10 µM; 360,000 tested, 0.3% active; HNF4a-FITC DNA binding, fluorescence polarization, 1 h; in the data active = activity change above about 30%, passing the limit was not always enough;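 also: controls were the assay level and a saturating level of protein; the project sought stronger binding though the title names inhibitors; some compounds called inactive have numbers as strong as hits; positive values seem to mean higher polarization but the record does not say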
E coli growth: E. coli growth inhibition | OD600 absorbance (concentration not given with the values) | AID 1053175 | 330,000 tested, 0.21% active | Escherichia coli growth, OD600, 23 h; active compounds read low;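 active = OD600 absorbance below the run mean of sample wells minus 3.6 SD, in any replicate, cut at about 0.56 in these data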;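 also: stock transfer was 300 nL into about 60 µL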
ALR H2O2 inh: blocks human ALR sulfhydryl oxidase activity; inhibition, % (no concentration beside the values); P55789; 290,000 tested, 3.8% active; purified ALR, DTT oxidation, H2O2 HRP-luminol luminescence;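 active = mean and each replicate at 75% or more; inconclusive = only one of the two met; inactive = neither met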;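 also: stock transfer was 7.5 nL into about 7.5 µL; 0% = neutral wells and 100% = wells with inactivated enzyme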
Target sequence (P55789 whole entry, looked up): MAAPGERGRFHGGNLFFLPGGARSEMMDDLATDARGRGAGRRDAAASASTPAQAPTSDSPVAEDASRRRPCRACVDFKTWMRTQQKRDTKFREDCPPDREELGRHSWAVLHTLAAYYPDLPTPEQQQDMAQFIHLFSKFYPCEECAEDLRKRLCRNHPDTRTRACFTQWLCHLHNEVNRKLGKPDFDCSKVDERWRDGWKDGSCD
rRNA inh HTS: inhibitors of bacterial rRNA selective over humanized ribosomes; E. coli WT GFP vs humanized-ribosome RFP mutants, fluorescence, 24 h; active compounds read low; DMSO median 0, no signal -100; GFP signal change (wild-type ribosome), % (test concentration not listed); 350,000 tested, 1.6% active; AID 720706;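 active = significant combined selectivity score with lowered wild-type GFP, culture density cut under 30%, mutant RFP and density less affected; inactive = any of these conditions unmet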; also: one replicate is shown; some compounds called inactive have numbers as strong as hits
MLL AF4-AF9 inh: MLL-AF4/AF9 protein interaction inhibition; AlphaScreen, biotin-AF4 peptide binding to FLAG-AF9; inhibition, % at 10 µM; AID 651704; P42568; 350,000 tested, 0.47% active;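 active = every replicate reaching a set inhibition limit, whatever the replicate mean, cut at about 25% in these data; inconclusive = mean inhibition reaches that limit but some replicates miss it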;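 also: 0% = plate neutral control median and 100% = total signal loss; the record names both 10 and 1 µM as test concentration; the first replicate is given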
Target sequence (P42568 whole entry, looked up): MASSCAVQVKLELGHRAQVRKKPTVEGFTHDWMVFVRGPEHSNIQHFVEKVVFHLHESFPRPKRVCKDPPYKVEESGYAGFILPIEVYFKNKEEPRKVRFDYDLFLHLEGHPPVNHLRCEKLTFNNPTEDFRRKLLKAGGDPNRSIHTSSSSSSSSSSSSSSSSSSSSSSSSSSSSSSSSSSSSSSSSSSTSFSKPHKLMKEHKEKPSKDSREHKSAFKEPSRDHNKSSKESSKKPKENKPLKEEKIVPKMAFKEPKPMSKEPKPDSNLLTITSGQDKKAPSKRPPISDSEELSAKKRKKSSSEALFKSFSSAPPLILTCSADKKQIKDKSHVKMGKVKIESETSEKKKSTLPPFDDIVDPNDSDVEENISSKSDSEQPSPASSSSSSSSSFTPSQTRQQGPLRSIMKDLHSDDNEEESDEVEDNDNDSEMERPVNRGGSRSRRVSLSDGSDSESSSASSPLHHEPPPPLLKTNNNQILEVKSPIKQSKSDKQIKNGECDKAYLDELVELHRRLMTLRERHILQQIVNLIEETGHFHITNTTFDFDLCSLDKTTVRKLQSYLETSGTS
rRNA inh HTS OD600: second read-out of rRNA inh HTS, no call of its own (marks repeat the call); OD600 change, %; measured here: OD600 growth;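 optical density of the mix in the first replicate; 0 = DMSO median and -100 = no signal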
rRNA inh HTS RFP: further read-out of rRNA inh HTS, marked with its call; RFP signal change, %; measured here: RFP humanized mutant strains;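 first replicate; 0 = DMSO median and -100 = no signal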
Numbers without * were called inactive; i = inactive; ? = inconclusive; . = no result given; + = active, no number.

SMILES	Vif A3G	FGF22 binding	HNF4A DNA FP	E coli growth	ALR H2O2 inh	rRNA inh HTS	rRNA inh HTS OD600	rRNA inh HTS RFP	MLL AF4-AF9 inh
O=C(NCc1ccccc1)c1cc(C2CCCCN2S(=O)(=O)c2ccccc2)on1 (stereo not drawn)	.	i	4.2	.	.	-1	-4	-1.7	-1.3
CC(=O)c1ccc(S(=O)(=O)Nc2ccc(C(=O)NCC(c3ccccc3)N(C)C)cc2)cc1 (stereo not drawn)	13%	i	-5.1	0.67	29	-6	-9	2.1	0.3
Cc1noc(C(C)C)c1C(=O)Nc1ccc(-c2nnc3n2CCCCC3)cc1	6%	i	-0.5	0.69	2	.	.	.	0.5
Cc1ccc(S(=O)(=O)N[C@H]2CC[C@@H](CC(=O)N3CCN(c4ccccc4)CC3)O[C@@H]2CO)cc1	.	i	.	.	.	-4	-2	-1.4	0.3
CN(C)C(=O)[C@H]1[C@H](CO)[C@H]2Cn3c(ccc(-c4ccccc4F)c3=O)[C@@H]1N2C(=O)c1ccncc1	.	i	.	.	.	4	13	0.9	0.7
O=S(=O)(Nc1nnc(C(F)(F)F)s1)c1ccc(Cl)cc1	0%	+	-0.3	0.66	3	15	6	36	-0.2
O=C(C[C@H]1CC[C@@H]2[C@H](COC[C@H](O)CN2C(=O)Cc2ccccc2)O1)NC1CCCC1	.	i	.	.	.	-1	10	-4.5	-8.1
COc1cccc(NC(=S)N(Cc2ccco2)C(C)c2ccco2)c1 (stereo not drawn)	-6%	i	1.4	0.68	-12	-10	-2	4.7	1.9
CC(C)(C)S(=O)(=O)c1c(C(=O)O)cccc1C(=O)O	-5%	.	-1.2	0.72	-23	.	.	.	.
Cc1ccc(NC(=O)COC(=O)c2ccc3c(c2)OCCO3)cc1	.	i	-0.3	0.67	-1	20	14	3.3	-0.7
CCOC(=O)CNC(=O)N1CCCC(N(C)CCc2ccccc2)C1 (stereo not drawn)	7%	i	3.9	0.71	.	19	20	3.9	-1.5
O=C(C[C@H]1CC[C@H](NC(=O)C2CCOCC2)[C@@H](CO)O1)NCC1CCCCC1	.	i	.	.	.	0	1	-0.4	0.5
O=C(Cc1ccc([N+](=O)[O-])cc1)OCc1c(F)cccc1Cl	.	i	2.9	0.67	-1	23	15	7.0	2.6
COc1cccc(NC(=S)NCc2cccnc2)c1	32%	.	2.1	0.66	-12	.	.	.	.
Cc1ccc(F)c(NC(=O)CCOc2ccccc2C)c1	.	i	15	0.69	-1	-19*	-1.1*	1.2*	-6.3
COc1ccccc1-c1ccc([C@@H]2[C@H](C#N)N(C(=O)C3CCC3)[C@H]2CO)cc1	.	i	.	.	.	1	3	1.0	0.1
CCOC(=O)CNc1ncc(C(F)(F)F)cc1Cl	-6%	i	-2.3	0.71	-3	9	6	0.0	-3.1
COC(=O)c1sccc1NC(=O)CCC1CCCCC1	1%	.	0.8	0.67	.	.	.	.	.
O=C(NC(Nc1nc2ccc([N+](=O)[O-])cc2s1)(C(F)(F)F)C(F)(F)F)c1ccccc1	1%	.	8.5	0.56	-7	.	.	.	.
COc1ccc(OC)c(C2C(C(N)=O)=C(C)Nc3nc(-c4cccc(Cl)c4)nn32)c1 (stereo not drawn)	-4%	.	-5.5	0.7	-10	.	.	.	.
O=C(c1ccc(CS(=O)(=O)c2ccccc2)o1)N1CCOCC1	24%	i	-3.2	0.69	-43	-5	3	-4.8	5.5
CC(=O)Nc1ccc(S(=O)(=O)N2CCN(C(=O)c3ncoc3-c3ccccc3)CC2)cc1	-2%	i	-2.8	0.71	.	1	4	-2.5	-3.6
COc1ccc(NC(=O)N(C)C[C@@H]2Oc3ncccc3C(=O)N([C@H](C)CO)C[C@@H]2C)cc1	.	i	.	.	.	4	11	-2.6	-7.1
C=CCc1ccc(OCCn2cccc2C=O)c(OC)c1	1%	.	-0.9	0.72	-5	.	.	.	.
Cc1cc(=O)oc2cc(OCCCN3C(=O)c4ccccc4C3=O)ccc12	.	i	3.6	0.67	-5	9	6	-6.4	-5.1

Following part
SMILES	Vif A3G	FGF22 binding	HNF4A DNA FP	E coli growth	ALR H2O2 inh	rRNA inh HTS	rRNA inh HTS OD600	rRNA inh HTS RFP	MLL AF4-AF9 inh
CC(=O)N(C)C[C@@H]1Oc2cc(C#C[C@@H](C)O)ccc2S(=O)(=O)N([C@H](C)CO)C[C@@H]1C	.	i	.	.	.	3	4	-2.6	-2.3
N#Cc1ccc2ccn(CC(=O)NC3CCCCC3)c2c1	-10%	.	-2.0	0.65	-12	.	.	.	.
CSCCCNC(=S)N1CCc2ccccc2C1	-8%	i	1.3	0.68	-1	-1	4	-1.9	0.9
C[C@@H]1CN([C@@H](C)CO)S(=O)(=O)c2ccc(C#CC3CCCC3)cc2O[C@H]1CN(C)C(=O)C1CC1	.	i	.	.	.	-14	-41	10	-13
CCOC(=O)C1(CCOc2ccccc2)CCN(Cc2ccc(CO)o2)CC1	4%	i	1.8	0.71	-4	3	-2	-0.6	-0.8
C[C@@H]1CCCCO[C@@H](CN(C)S(C)(=O)=O)[C@@H](C)CN([C@H](C)CO)C(=O)c2cc(NC(=O)NC3CCCCC3)ccc2O1	.	i	.	.	.	4	4	-0.4	-4.4
CCNC(=O)C[C@@H]1CC[C@@H]2[C@H](COc3ccc(NC(=O)Nc4c(C)noc4C)cc3C(=O)N2C)O1	.	i	.	.	.	0	2	-1.3	-2.3
CC1(C)CC(=O)C2=C(C1)Nc1ccccc1S2	-13%	i	-3.5	.	?	-2	-2	-1.7	4.3
O=C(O)CC1NC(=O)N(C2CCCCC2)C1=O (stereo not drawn)	-6%	.	0.5	0.68	-1	23	11	8.4	-21
O=C(O)c1cc2ccccc2cn1	4%	i	0.9	0.64	.	-8	-7	-4.1	-6.2
O=C(c1ccco1)N1CCN(C(=O)c2cnn3c2NC(c2cccs2)CC3C(F)(F)F)CC1 (stereo not drawn)	3%	i	1.9	0.66	3	2	0	-1.9	-23
Cc1cccnc1NC(=O)COc1ccc2oc3c(c2c1)CCCC3	32%	.	1.5	0.68	-14	-39	-75	-12	.
CC1(C)C/C(=N\NC(=S)Nc2ccccc2F)c2cc(O)ccc2O1	8%	i	-2.8	.	30	-32	-29	-5.6	13
CC(C)[C@H](NS(=O)(=O)c1ccccc1F)C(=O)NC1CCCCC1	.	i	1.9	0.63	.	12	9	0.7	0.8
CN(Cc1ccco1)S(=O)(=O)c1nnc(NC(=O)c2ccccc2Cl)s1	?	i	-9.7	0.69	55	-11	-7	0.7	-2.7
N/C(=N\O)c1ccc(NC(=O)c2ccc(Br)o2)cc1	-2%	.	1.9	.	98*	.	.	.	.
O=C(Nc1nc2n(n1)C(c1ccccc1)CC(c1ccc(Cl)cc1)N2)c1ccco1 (stereo not drawn)	75%	.	1.2	0.72	-2	.	.	.	.
O=C(NCC1CC1)c1ccc(Oc2cc(Cl)cc(Cl)c2)o1	.	i	1.2	0.66	6	-17	-18	-1.0	1.9
Cn1cnc(S(=O)(=O)N2CCN(c3ccccc3)CC2)c1	.	i	4.3	0.72	13	6	6	-0.6	-4.0
COc1ccc(Cl)cc1NC(=O)CN(C)C(=O)CSc1ccc2c(c1)OCCO2	-18%	i	2.6	0.7	-1	.	.	.	-3.3
O=C1N=C2N(CCN3CCCCC3)c3ccccc3N2/C1=C\c1ccc([N+](=O)[O-])s1	.	i	4.9	0.71	.	7	2	3.5	-2.1
OCCCNc1ncnc2sc(-c3ccccc3)cc12	-13%	i	1.0	.	53	-34	-40	-5.8	1.9
Cc1cc(NC(=O)CSc2nnc(Cc3ccccc3)o2)no1	-1%	.	1.9	0.69	-1	.	.	.	.
Cc1ccc(OCC(=O)N(Cc2ccco2)C2CCS(=O)(=O)C2)cc1C (stereo not drawn)	.	.	2.5	0.66	-13	.	.	.	.
CCCCC(=O)Nc1cc([N+](=O)[O-])ccc1F	14%	i	3.4	0.66	4	13	12	-0.2	-2.8

Later entries
SMILES	Vif A3G	FGF22 binding	HNF4A DNA FP	E coli growth	ALR H2O2 inh	rRNA inh HTS	rRNA inh HTS OD600	rRNA inh HTS RFP	MLL AF4-AF9 inh
COc1ccc(CNC(=O)c2ccc3ccccc3n2)cc1OC	.	i	2.7	0.64	50	-4	-20	-0.4	-5.2
CCOC(=O)c1c(NC(=O)CSc2c[nH]c3ccccc23)sc2c1CCCC2	11%	i	-2.7	0.79	-9	-7	-32	-1.9	?
O=C(CC1C(=O)NCCN1CC(c1ccccc1)c1ccccc1)NC1CC1 (stereo not drawn)	2%	.	0.4	0.72	12	7	15	1.6	1.0
CC1CCCCC12NC(=O)N(CC(=O)NNC(=O)c1ccc(Br)cc1)C2=O (stereo not drawn)	-1%	i	-5.5	0.7	-1	0	5	-3.1	-2.1
CCOc1ccc(NC(=S)N(CCN2CCOCC2)Cc2cc3cc4c(cc3[nH]c2=O)OCO4)cc1	-5%	i	0.5	0.7	-19	.	.	.	2.3
Oc1cc2c(cc1C(c1ccc(Br)cc1)N1CCCC1)OCO2 (stereo not drawn)	4%	.	2.5	0.69	.	-3	-22	-6.0	20
Cc1ccc(CNS(=O)(=O)c2c(C(=O)N3CCCCC3)c(C)n(C)c2C)cc1	-1%	i	-0.4	0.7	4	2	4	-0.6	0.1
COc1cc(NC(=O)CSc2nnc(-c3ccncc3)n2C2CCCCC2)ccc1NC(=O)c1ccco1	10%	i	-1.0	0.7	-12	-4	2	0.0	-3.1
Cc1cc(F)ccc1S(=O)(=O)Nc1ccc(C(=O)N2CCCCCC2)cc1	-9%	i	1.6	0.68	-1	-2	-51	4.1	3.3
Cc1ccc(C)c(NC(=O)Cc2ccc(S(=O)(=O)N3CCCCC3)s2)c1	10%	.	6.2	0.68	2	.	.	.	.
CCC(=O)OC1CC(C)N(C(=O)c2ccccc2)c2ccc(C)cc21 (stereo not drawn)	15%	.	4.0	0.73	0	.	.	.	.
O=c1cc(-c2ccsc2)oc2cc(-c3ccc4c(c3)OCO4)ccc12	.	i	1.1	0.7	-6	11	11	7.2	-13
O=C(C[C@H]1CC[C@@H](NC(=O)C2CCOCC2)[C@H](CO)O1)NCC1CCCCC1	.	i	.	.	.	2	7	1.3	0.5
COc1ccccc1C(=O)Nc1ccnn1C1CCN(C)CC1	.	i	1.4	0.69	4	1	4	0.3	-19
O=S(=O)(c1ccc(F)cc1)N1CCCCN2[C@H](CO)[C@H](c3ccc(C#CC4CC4)cc3)[C@@H]2C1	.	i	.	.	.	0	6	-0.7	-0.2
CS(=O)(=O)N1[C@H](C#N)[C@@H](c2ccccc2)[C@H]1CO	.	i	.	.	.	7	15	1.1	0.2

By substructure: those above with an NH in an aromatic ring (two)
SMILES	Vif A3G	FGF22 binding	HNF4A DNA FP	E coli growth	ALR H2O2 inh	rRNA inh HTS	rRNA inh HTS OD600	rRNA inh HTS RFP	MLL AF4-AF9 inh
CCOC(=O)c1c(NC(=O)CSc2c[nH]c3ccccc23)sc2c1CCCC2	11%	i	-2.7	0.79	-9	-7	-32	-1.9	?
CCOc1ccc(NC(=S)N(CCN2CCOCC2)Cc2cc3cc4c(cc3[nH]c2=O)OCO4)cc1	-5%	i	0.5	0.7	-19	.	.	.	2.3

High-throughput results deposited in PubChem BioAssay by several laboratories.

Some of the compounds tested; count on the stated rates, not on these rows.
